FGF22 binding: binders of human FGF22 protein, primary screen, FGF22 synaptogenesis inhibitor project, biophysical, thermal shift, single point; Fibroblast growth factor 22 (Homo sapiens), Q9HCT0; recombinant FGF22 thermal shift, SYPRO orange fluorescence; percent of sucrose octasulfate shift, DMSO zero; calls only at 9.99 µM; 340,000 compounds, 1.5% hits; AID 651658, 2012;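 active means melting point raised past a set limit in the mean and every replicate; three in four hits are not shown here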
Target sequence (Q9HCT0 whole entry, looked up): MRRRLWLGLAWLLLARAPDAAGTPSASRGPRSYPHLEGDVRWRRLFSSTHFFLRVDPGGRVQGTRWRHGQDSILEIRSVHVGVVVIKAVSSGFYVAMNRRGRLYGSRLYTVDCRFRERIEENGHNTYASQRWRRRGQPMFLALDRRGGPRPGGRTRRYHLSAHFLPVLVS
Calls only; i = inactive; + = active, no number.

SMILES	FGF22 binding
N#C[C@H]1N[C@H](CO)[C@H]1c1ccc(C#Cc2ccc(F)cc2)cc1	i
COCCOC(=O)N1C(=O)[C@@]2(c3cc(C#CCNC(N)=O)ccc31)[C@H](C(N)=O)[C@H]1C(=O)O[C@H](c3ccccc3)[C@H](c3ccccc3)N1[C@@H]2c1ccccc1OCCO	i
C[C@H](CO)N1C[C@H](C)[C@H](CN(C)S(=O)(=O)c2ccccc2)Oc2c(NS(=O)(=O)c3ccc(F)cc3)cccc2C1=O	i
C[C@H](CO)N1C[C@H](C)[C@H](CN(C)S(=O)(=O)c2ccc(F)cc2)OCCCC[C@H](C)Oc2ccc(NS(C)(=O)=O)cc2C1=O	i
C[C@H](CO)N1C[C@H](C)[C@@H](CN(C)C(=O)CCCN(C)C)OCCCC[C@H](C)Oc2ccc(NC(=O)c3ccccc3)cc2C1=O	i
Cc1noc(C)c1NC(=O)Nc1cccc2c1O[C@H](CN(C)C)[C@@H](C)CN([C@H](C)CO)C2=O	i
CC(C)C#Cc1cnc2c(c1)C(=O)N([C@H](C)CO)C[C@@H](C)[C@@H](CN(C)Cc1ccccn1)O2	i
O=C(C[C@@H]1CC[C@@H](NC(=O)c2cccnc2)[C@H](CO)O1)NCCN1CCCCC1	i
CC(C)NC(=O)N(C)C[C@H]1Oc2ccc(NC(=O)CCCCCC(=O)Nc3ccccc3N)cc2C(=O)N([C@H](C)CO)C[C@@H]1C	i
Cc1cc(C(=O)Nc2cccc3c2O[C@H](CN(C)C(=O)Nc2ccc(F)cc2)[C@H](C)CN([C@H](C)CO)C3=O)n(C)n1	i
COc1ccc(S(=O)(=O)N(C)C[C@H]2OCCCC[C@@H](C)Oc3ccc(NC(=O)Nc4cccc5ccccc45)cc3C(=O)N([C@@H](C)CO)C[C@H]2C)cc1	+
C[C@H]1CCCCO[C@@H](CN(C)C(=O)c2ccncc2)[C@@H](C)CN([C@@H](C)CO)C(=O)c2cc(NS(=O)(=O)c3cn(C)cn3)ccc2O1	i
COc1ccccc1NC(=O)N(C)C[C@@H]1Oc2ncc(C#CCN(C)C)cc2C(=O)N([C@H](C)CO)C[C@@H]1C	i
CCC(=O)N1C[C@H]2[C@@H](c3ccccc31)[C@H](CO)N2Cc1ccccc1F	i
C[C@@H]1CN([C@@H](C)CO)S(=O)(=O)c2ccc(C#CCN(C)C)cc2O[C@H]1CN(C)C(=O)C1CCC1	i
CC(C)NC(=O)N(C)C[C@H]1Oc2ccc(NC(=O)CCN3CCOCC3)cc2CC(=O)N([C@@H](C)CO)C[C@@H]1C	i
COCC(=O)N1C[C@@H](C)[C@@H](OC)CN(C)C(=O)c2cc(NC(=O)c3cnccn3)ccc2OC[C@@H]1C	i
CN(C)C(=O)C[C@@H]1CC[C@H]2[C@@H](COC[C@H](O)CN2Cc2ccc(C(F)(F)F)cc2)O1	i
COc1ccc(CNC(=O)C[C@H]2C=C[C@@H](NC(=O)CN(C)C)[C@@H](CO)O2)cc1	i
C[C@H](CO)N1C[C@H](C)[C@H](CN(C)S(=O)(=O)c2ccccc2)Oc2ccc(NC(=O)Cc3cn(C)c4ccccc34)cc2CC1=O	i
O=C(Nc1cc(F)ccc1F)N1CCCCN2[C@H](C1)[C@H](c1ccc(-c3ccccc3)cc1)[C@@H]2CO	i
C[C@@H]1CN([C@H](C)CO)S(=O)(=O)c2ccc(-c3cccnc3)cc2O[C@@H]1CN(C)C(=O)NC1CCCCC1	i
C[C@@H]1CN([C@@H](C)CO)C(=O)c2c(c3ccccc3n2C)-c2ccccc2CO[C@@H]1CN(C)S(=O)(=O)CC(F)(F)F	i
COc1ccccc1-c1ccc2c(c1)O[C@H](CN(C)C(=O)Nc1ccccc1)[C@@H](C)CN([C@H](C)CO)S2(=O)=O	i
O=C(C[C@H]1CC[C@@H]2[C@H](COC[C@H](O)CN2S(=O)(=O)c2cccc(F)c2)O1)NCc1ccncn1	i
O=C(Nc1ccc2c(c1)[C@@H]1C[C@H](CC(=O)N3CCOCC3)O[C@H](CO)[C@@H]1O2)C1CCC1	i
COC(=O)C1=C(C)N(Cc2ccc(F)cc2)C(=S)NC1c1ccc(Cl)cc1 (stereo not drawn)	i
COc1ccc(NC(=O)N(C)C[C@@H]2Oc3ccc(NC(=O)Cc4ccccc4)cc3C(=O)N([C@H](C)CO)C[C@@H]2C)cc1	i
COc1ccc(NC(=O)N(C)C[C@H]2Oc3c(NC(=O)C4CCOCC4)cccc3C(=O)N([C@H](C)CO)C[C@@H]2C)cc1	i
C[C@@H]1CN([C@H](C)CO)C(=O)Cc2cc(NC(=O)Nc3ccc(F)cc3)ccc2O[C@H]1CN(C)CC1CCCCC1	i
CO[C@H]1CC[C@@H]2CCN(C)C(=O)CCCN(C)C(=O)c3cc(C#N)ccc3OC[C@H]1O2	i
C[C@@H]1CN([C@@H](C)CO)S(=O)(=O)c2ccc(C#CC3(O)CCCC3)cc2O[C@@H]1CN(C)C(=O)Nc1ccccc1	i
O=C(C[C@@H]1C=C[C@H](NS(=O)(=O)c2ccccc2)[C@@H](CO)O1)NCCN1CCCCC1	i
O=C(C1CC1)N1CCCCN2[C@H](CO)[C@@H](c3ccc(C#CC4CCCC4)cc3)[C@@H]2C1	i
Cc1noc(C)c1C(=O)N(C)C[C@H]1OCc2ccccc2-c2ccccc2C(=O)N([C@H](C)CO)C[C@H]1C	i
C[C@H](CO)N1C[C@H](C)[C@@H](CN(C)C(=O)Nc2ccc(F)cc2)Oc2ccc(NC(=O)Nc3ccccc3)cc2CC1=O	i
COc1ccc(CNC(=O)C[C@@H]2C=C[C@H](NC(=O)CN(C)C)[C@H](CO)O2)cc1	i
CC(C)C(=O)Nc1ccc2c(c1)C(=O)N(C)[C@@H]1CC[C@@H](CC(=O)NCc3ccccc3)O[C@@H]1CO2	i
CN1C(=O)c2cc(NC(=O)c3ccc(C(F)(F)F)cc3)ccc2OC[C@H]2O[C@H](CC(=O)O)CC[C@H]21	i
O=C(C[C@@H]1CC[C@H]2[C@@H](COC[C@H](O)CN2CCC(F)(F)F)O1)NCC1CCCCC1	i
COc1ccc2c3c(n(C)c2c1)[C@@H](CO)N(S(=O)(=O)c1ccc(C)cc1)CC31CCN(S(=O)(=O)c2ccc(C)cc2)CC1	i
COc1cccc(-c2ccc3c(c2)[C@H]2[C@H](CCN2S(=O)(=O)c2ccccc2OC)[C@@H](CO)N3)c1	i
O=C(C[C@H]1CC[C@@H](NC(=O)C2CCOCC2)[C@@H](CO)O1)NCC1CCCCC1	i
O=C(C1CCC1)N1C[C@@H]2[C@H](c3ccccc31)[C@H](CO)N2C(=O)c1ccccc1	i
CCCNC(=O)C[C@@H]1C[C@@H]2c3cc(NC(=O)Nc4ccc(OC)cc4)ccc3O[C@@H]2[C@H](CO)O1	i

In a second layout: results already given
Structure,FGF22 binding
O=C(C[C@H]1CC[C@@H]2[C@H](COC[C@H](O)CN2S(=O)(=O)c2cccc(F)c2)O1)NCc1ccncn1,i
O=C(Nc1ccc2c(c1)[C@@H]1C[C@H](CC(=O)N3CCOCC3)O[C@H](CO)[C@@H]1O2)C1CCC1,i
COC(=O)C1=C(C)N(Cc2ccc(F)cc2)C(=S)NC1c1ccc(Cl)cc1 (stereo not drawn),i
COc1ccc(NC(=O)N(C)C[C@@H]2Oc3ccc(NC(=O)Cc4ccccc4)cc3C(=O)N([C@H](C)CO)C[C@@H]2C)cc1,i
COc1ccc(NC(=O)N(C)C[C@H]2Oc3c(NC(=O)C4CCOCC4)cccc3C(=O)N([C@H](C)CO)C[C@@H]2C)cc1,i
C[C@@H]1CN([C@H](C)CO)C(=O)Cc2cc(NC(=O)Nc3ccc(F)cc3)ccc2O[C@H]1CN(C)CC1CCCCC1,i
CO[C@H]1CC[C@@H]2CCN(C)C(=O)CCCN(C)C(=O)c3cc(C#N)ccc3OC[C@H]1O2,i
C[C@@H]1CN([C@@H](C)CO)S(=O)(=O)c2ccc(C#CC3(O)CCCC3)cc2O[C@@H]1CN(C)C(=O)Nc1ccccc1,i
O=C(C[C@@H]1C=C[C@H](NS(=O)(=O)c2ccccc2)[C@@H](CO)O1)NCCN1CCCCC1,i
O=C(C1CC1)N1CCCCN2[C@H](CO)[C@@H](c3ccc(C#CC4CCCC4)cc3)[C@@H]2C1,i
Cc1noc(C)c1C(=O)N(C)C[C@H]1OCc2ccccc2-c2ccccc2C(=O)N([C@H](C)CO)C[C@H]1C,i
C[C@H](CO)N1C[C@H](C)[C@@H](CN(C)C(=O)Nc2ccc(F)cc2)Oc2ccc(NC(=O)Nc3ccccc3)cc2CC1=O,i

The list goes on.
SMILES	FGF22 binding
C[C@H]1CN([C@@H](C)CO)C(=O)c2cccc(NS(C)(=O)=O)c2O[C@H]1CN(C)Cc1ccc(C(F)(F)F)cc1	i
Cc1noc(C)c1S(=O)(=O)Nc1ccc2c(c1)C(=O)N([C@@H](C)CO)C[C@@H](C)[C@@H](CN(C)S(=O)(=O)c1ccc(F)cc1)O2	i
CCC(=O)N1[C@H](CO)[C@H](c2ccccc2)C12CN(C(=O)c1ccc3c(c1)OCO3)C2	i
C[C@@H]1CN([C@H](C)CO)S(=O)(=O)c2ccc(C3=CCCC3)cc2O[C@@H]1CN(C)C(=O)c1cnccn1	i
C[C@@H](O)C#Cc1cnc2c(c1)C(=O)N([C@@H](C)CO)C[C@H](C)[C@@H](CN(C)Cc1cccc(C(=O)O)c1)O2	i
Cc1ccc(S(=O)(=O)Nc2ccc3c(c2)C(=O)N([C@@H](C)CO)C[C@@H](C)[C@H](CN(C)Cc2ccc(C(F)(F)F)cc2)OCCCC[C@H](C)O3)cc1	i
C[C@@H]1CN([C@@H](C)CO)C(=O)c2cc(NS(=O)(=O)c3ccc(F)cc3)ccc2O[C@@H](C)CCCCO[C@H]1CN(C)C	i
CC=Cc1ccc2n(c1=O)C[C@H]1[C@H](CO)[C@@H](C(=O)NCCC)N(Cc3cccnc3)[C@@H]21 (mixture of isomers)	i
COc1ccc(-c2cn(CC[C@@H]3CC[C@@H](NC(=O)Cc4ccccn4)[C@H](CO)O3)nn2)cc1	i
Cc1ccc(S(=O)(=O)Nc2cccc3c2O[C@@H](CN(C)C(=O)Nc2c(C)noc2C)[C@@H](C)CN([C@H](C)CO)C3=O)cc1	i
C[C@@H]1CN([C@H](C)CO)C(=O)Cc2cc(N(C)C)ccc2O[C@@H]1CN(C)S(=O)(=O)c1cn(C)cn1	i
C[C@@H]1CN([C@@H](C)CO)C(=O)Cc2cc(NC(=O)Nc3ccc(F)cc3)ccc2O[C@H]1CN(C)Cc1ccc(-c2ccccc2)cc1	i
C[C@H](CO)N1C[C@H](C)[C@H](CN(C)C(=O)Nc2ccccc2)Oc2c(NC(=O)NC3CCCCC3)cccc2C1=O	i
C[C@H](CO)N1C[C@H](C)[C@H](CN(C)Cc2ccncc2)Oc2ccc(NC(=O)Nc3ccc(F)cc3)cc2C1=O	i
CC(=O)N1CCCCN2[C@H](CO)[C@@H](c3ccc(C#Cc4ccccc4F)cc3)[C@@H]2C1	i
C[C@@H]1CN([C@H](C)CO)S(=O)(=O)c2ccc(-c3cccc(C#N)c3)cc2O[C@@H]1CN(C)C(=O)C1CC1	i
Cc1ccc(S(=O)(=O)N(C)C[C@H]2Oc3c(NC(=O)CCCCCC(=O)Nc4ccccc4N)cccc3C(=O)N([C@@H](C)CO)C[C@H]2C)cc1	i
CC(=O)N1CC2(C1)[C@H](c1ccc(-c3cccc(F)c3)cc1)[C@H](CO)N2CC1CCOCC1	i
C[C@H]1CN([C@@H](C)CO)C(=O)c2cc(/C=C/c3ccccc3)cnc2O[C@@H]1CN(C)S(=O)(=O)c1ccccc1F	i
COc1cccc(S(=O)(=O)Nc2ccc3c(c2)[C@H]2C[C@@H](CC(=O)O)O[C@H](CO)[C@H]2O3)c1	i
COc1ccc2c3c(n(C)c2c1)[C@H](CO)N(C(=O)Nc1ccc(F)cc1)CC31CCN(Cc2ccccc2F)CC1	i
C[C@@H]1CN([C@H](C)CO)C(=O)c2cccc(NC(=O)c3ccc(-c4nccs4)cc3)c2O[C@H]1CN(C)Cc1ccncc1	i
COCC(=O)N(C)C[C@@H]1Oc2ncc(-c3ccc(C)cc3)cc2C(=O)N([C@H](C)CO)C[C@@H]1C	i
Cc1noc(C)c1NC(=O)Nc1ccc2c(c1)C(=O)N([C@H](C)CO)C[C@H](C)[C@@H](CN(C)Cc1ccncc1)OCCCC[C@@H](C)O2	i
CNC[C@H]1Oc2ccc(NC(=O)Nc3c(C)noc3C)cc2C(=O)N([C@@H](C)CO)C[C@H]1C	i
CC(C)C#Cc1ccc2c(c1)O[C@@H](CN(C)C(=O)CN(C)C)[C@@H](C)CN([C@H](C)CO)S2(=O)=O	i
Cc1noc(C)c1NC(=O)N[C@H]1CC[C@H](CCNC(=O)C2CC2)O[C@@H]1CO	i
C[C@@H]1CCCCO[C@@H](CN(C)Cc2ccc3c(c2)OCO3)[C@@H](C)CN([C@@H](C)CO)C(=O)c2cc(NC(=O)NC3CCCCC3)ccc2O1	i
O=C(CN1CCOCC1)N[C@@H]1CC[C@@H](CCNC(=O)C2CCC2)O[C@H]1CO	i
COc1ccc(S(=O)(=O)N(C)C[C@H]2Oc3ncc(/C=C/c4ccccc4)cc3C(=O)N([C@H](C)CO)C[C@@H]2C)cc1	i
CC(C)NC(=O)N(C)C[C@H]1Oc2ccc(NS(C)(=O)=O)cc2C(=O)N([C@@H](C)CO)C[C@H]1C	i
CO[C@H](CN(C)C(=O)c1cnccn1)[C@H](C)CN([C@H](C)CO)S(=O)(=O)c1ccccc1	i
C[C@@H]1CN([C@H](C)CO)C(=O)c2c(c3ccccc3n2C)-c2ccccc2CO[C@H]1CN(C)S(=O)(=O)c1ccc(F)cc1	i
CCCNC(=O)C[C@@H]1C[C@@H]2c3cc(NC(=O)COC)ccc3O[C@@H]2[C@@H](CO)O1	i
CO[C@H]1CN(C)C(=O)c2cc(NC(=O)C3CC3)ccc2OC[C@@H](C)N(C(=O)c2ccccc2F)C[C@H]1C	i
C[C@@H]1CN([C@@H](C)CO)C(=O)c2cc(NC(=O)Cc3ccccc3)ccc2O[C@H]1CN(C)Cc1ccc(Cl)c(Cl)c1	i
O=C(Nc1ccc2c(c1)[C@@H]1C[C@H](CC(=O)N3CCCCC3)O[C@@H](CO)[C@@H]1O2)C1CCOCC1	i

High-throughput results from PubChem.

An excerpt, so the mix of outcomes need not match the whole.
